# PABP FP inh: PABP-poly(A) binding inhibition; AID 2014; 290,000 tested, 1% active; P11940; PABP-poly(A) RNA binding, fluorescence polarization; inhibition, % at 35 µM;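 active = 50% or more with normal probe brightness, or confirmed in later tests; about a fifth of its hits are not listed in these tables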;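 also: calls also rest on retests at 20 µM and on dose response follow-up; controls were probe without protein and protein plus probe with vehicle; some compounds called inactive have numbers as strong as hits; many hits fall short of the cut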
# MT1-MMP act inh: MT1-MMP (human) activation inhibition; P50281; HT1080 RFP-PRO-GFP cells, GFP/RFP ratio fluorescence, overnight; percent of plate control window, DMSO zero; GFP/RFP ratio change, % at 20 µM; 360,000 tested, 0.061% active; AID 651647;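 active = GFP/RFP ratio change of at least 30% with cell ATP level not reduced by more than half and red fluorescence within 50% of control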; also: strong numbers were not always called active
#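 Test system: HT1080 cells expressing an RFP-PRO-GFP fluorescent reporter construct / Compound dosing: single-point 20 µM compound, 1% DMSO / Schedule: cells overnight before dosing, compound overnight, 37 °C, 5% CO2 / Evaluation: GFP/RFP fluorescence ratio / Control set: DMSO and RFP-L50D-GFP cell wells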
# Rce1 inhib: inhibitors of yeast Ras-converting enzyme; Q03530; yeast membranes, quenched prenylated peptide cleavage fluorescence; calls only; 290,000 tested, 0.27% active; AID 2563;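 active = fall in fluorescence gain of 50% or more versus controls, with final raw signal at or below 3038400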;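 also: plate controls were neutral control wells for no effect and wells lacking membranes for full effect; tested at 10 µM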
# Target sequence (Q03530 whole entry, looked up): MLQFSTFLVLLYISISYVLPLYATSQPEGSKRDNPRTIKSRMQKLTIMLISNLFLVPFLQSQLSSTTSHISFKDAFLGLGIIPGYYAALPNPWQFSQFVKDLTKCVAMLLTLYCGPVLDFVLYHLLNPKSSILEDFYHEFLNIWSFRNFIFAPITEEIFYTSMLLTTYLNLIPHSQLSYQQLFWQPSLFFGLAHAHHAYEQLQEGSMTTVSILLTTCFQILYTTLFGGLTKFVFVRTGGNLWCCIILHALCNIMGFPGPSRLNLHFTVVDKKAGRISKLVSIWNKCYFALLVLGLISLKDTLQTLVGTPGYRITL
# Env fusion inh: blocks HIV Env-driven cell-cell fusion. AID 651610. HeLa-JRFL Env/CEM21 cell fusion, luciferase. 360,000 tested, 1.1% active. inhibition, % at 12.3 µM;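 active = mean replicate inhibition score of at least 50 and every replicate individually at or above 50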;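 also: 0% = plate neutral controls and 100% = maraviroc near 300 nM; one replicate is shown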
# Yeast UUG start: alters start codon recognition fidelity in yeast | S. cerevisiae UUG-firefly luciferase reporter, luminescence/redox ratio | activity score, % at 18.7 µM | 350,000 tested, 0.13% active;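 active = replicate mean at a twofold rise or more, about +100% in these data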;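 also: firefly luciferase made from a UUG start codon reports start codon fidelity; reporter light over untreated wells divided by growth signal over untreated wells; some hits fall short of that in this replicate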
# CSC inhib: blocks cancer stem cells; cancer stem cell-like cells viability, luminescence; inhibition, % at 7.5 µM; 300,000 tested, 1.1% active;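 active = mean at 75% or more and at least half the replicates too; tested in HMLE shEcad cells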;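 also: 0% = median of negative and 100% = median of positive control wells; the first replicate is given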
# eIF4H FP inh: inhibitors of RNA binding by human eIF4H; Q15056; eIF4H fluorescence polarization binding assay; inhibition, % at 35 µM; 290,000 tested, 0.94% active;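 active = 50% or more with normal probe brightness, or confirmed in later tests; about a fifth of its hits are not listed in these tables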;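 also: calls also rest on retests at 20 µM and on dose response follow-up; 0% = protein and probe with vehicle and 100% = probe without protein; strong numbers were not always called active; many hits fall short of the cut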
# eIF4H FP inh retest: recorded beside eIF4H FP inh, whose call it bears; inhibition, %; compound at 20 µM; confirmation average;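 mean of two retest wells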
# PABP FP inh retest: recorded beside PABP FP inh, whose call it bears; inhibition, %; compound at 20 µM; confirmation repeats;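 mean of two retest wells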
# MT1-MMP act inh RFP: second read-out of MT1-MMP act inh, no call of its own (marks repeat the call); RFP signal change, %; measured here: RFP expression control read;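 0 = vehicle wells; hits needed this value within 50% of zero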
# * hit, by the source's call; i = inactive; · = not tested or not shown; + = active, no number.
SMILES,PABP FP inh,MT1-MMP act inh,MT1-MMP act inh RFP,Rce1 inhib,Env fusion inh,Yeast UUG start,CSC inhib,eIF4H FP inh,others
CS(=O)(=O)N1CCN(C(=O)NC23CC4CC(CC(C4)C2)C3)CC1,-8,-2,6,i,-31,0,4,-7,
CCOc1ccc2nc(Cl)c(CN(C(C)=O)C3CCCCC3)cc2c1,-7,-4,0,i,15,·,-4,-2,
CCOc1ccc(N=Cc2c(O)cc(C)oc2=O)cc1,-1,-3,1,i,-13,-14,6,-7,
COC(=O)c1ccc(COC(=O)c2ccccc2OC)cc1,-3,0,0,i,-20,·,5,-9,
COc1cccc(C(=O)O/N=C(\N)c2ccncc2)c1,7,4,-3,i,·,-31,-10,0,
COC(=O)C1=NN(C(=O)c2ccc(Cl)cc2)C(O)(c2ccccc2)C1 (stereo unspecified),4,-64,-1,i,-1,-3,-4,25,
CSc1ncccc1C(=O)OCC(=O)N(C)c1c(N)n(Cc2ccccc2)c(=O)[nH]c1=O,·,-2,1,i,0,-2,1,·,
COc1ccc2[nH]c(=O)c(CN(Cc3ccco3)C(=O)c3ccccc3)cc2c1,17,1,-1,i,·,-15,-15,-9,
CCC(C)C1C(C#N)=C(N)Oc2n[nH]c(-c3ccccc3)c21 (stereo unspecified),-3,-3,-3,i,-1,-14,8,5,
Cn1c(SCC(=O)N2CCCCC2)nc2c(c1=O)SCC2,4,2,3,i,-8,-15,-11,-1,
COc1cc(C(=O)NCC(=O)n2nc(C)cc2C)cc(OC)c1OC,-3,8,4,i,-119,0,-8,-6,
O=C(C1CCC1)N1CCc2cc(S(=O)(=O)N3CCN(c4ccccn4)CC3)ccc21,3,1,-1,i,·,2,-3,-5,
Cc1csc2ncc(C(=O)N(Cc3ccccc3)c3ccccn3)c(=O)n12,-12,-1,3,i,5,-3,-9,-2,
COc1ccc(OCCCC(=O)Nc2cccc([N+](=O)[O-])c2C)cc1,-10,5,-3,i,13,-13,4,0,
CCOC(=O)c1cnc(-c2ccccc2)nc1-c1ccccc1,-9,4,-1,i,11,·,4,-3,

# The closing five records of the part above lead into the next:
SMILES,PABP FP inh,MT1-MMP act inh,MT1-MMP act inh RFP,Rce1 inhib,Env fusion inh,Yeast UUG start,CSC inhib,eIF4H FP inh,others
COc1cc(C(=O)NCC(=O)n2nc(C)cc2C)cc(OC)c1OC,-3,8,4,i,-119,0,-8,-6,
O=C(C1CCC1)N1CCc2cc(S(=O)(=O)N3CCN(c4ccccn4)CC3)ccc21,3,1,-1,i,·,2,-3,-5,
Cc1csc2ncc(C(=O)N(Cc3ccccc3)c3ccccn3)c(=O)n12,-12,-1,3,i,5,-3,-9,-2,
COc1ccc(OCCCC(=O)Nc2cccc([N+](=O)[O-])c2C)cc1,-10,5,-3,i,13,-13,4,0,
CCOC(=O)c1cnc(-c2ccccc2)nc1-c1ccccc1,-9,4,-1,i,11,·,4,-3,
N#Cc1cc(-c2ccccc2)cnc1Sc1ccc(Cl)cc1,-12,0,-1,i,-79,-13,41,-6,
CC(=O)Nc1ccc(S(=O)(=O)NC(C)C(=O)OCC(=O)Nc2ccc(F)cc2Cl)cc1 (stereo unspecified),·,0,1,·,-20,-10,·,·,
CCC(=O)Oc1ccc2c(=O)c(-c3ccc4ccccc4n3)c(CC)oc2c1C,8,-2,-5,i,·,·,-13,-5,
O=C(NCCc1ccccc1)c1ccccc1NC(=O)C1CC=CCC1C(=O)O (stereo unspecified),44,-3,-3,i,-20,·,-2,-3,
COc1ccc(-c2cc(C#N)nc(Cl)n2)cc1,-2,-1,-4,i,-40,·,25,-2,
COc1ccccc1NC(=S)N(CCc1c(C)[nH]c2ccccc12)Cc1cccs1,-3,-4,-3,i,-20,-6,18,-4,
Cc1ccc(S(=O)(=O)/N=C2\C=C(Nc3cccc(C(=O)O)c3)C(=O)c3ccccc32)c(C)c1,24,21,-13,i,-23,-9,65,4,
CC12CCC(=O)N1C(C(=O)Nc1nnc(SCc3ccc(F)cc3)s1)CS2 (stereo unspecified),11,-5,-3,i,·,6,1,-12,
N#Cc1c2c(c(NCCN3CCOCC3)n3c1nc1ccccc13)CCCC2,12,-4,4,·,-38,·,-14,24,
Nc1cc(C(=O)OCC(=O)NCCCc2ccccc2)ccc1Cl,5,0,0,i,27,-14,-6,-7,
Cc1nc(SCCOc2ccc(F)cc2)c2ccccc2n1,5,0,1,i,-2,-9,8,-4,
Cc1nc2c(C)cccc2c2c1COC2,-4,3,-1,i,-10,·,8,1,
COc1ccc2nc(SCCC(=O)O)cc(C)c2c1,-4,-1,4,i,8,·,-13,3,
CCOc1ccccc1NC(=O)C1CCN(S(=O)(=O)c2c(C)nn(C)c2C)CC1,0,0,0,i,-26,-8,6,2,
CCOc1ccccc1NC(=O)CCS(=O)(=O)c1ccc2c(c1)CC(C)N2C(C)=O (stereo unspecified),4,5,-1,i,-12,-7,-5,-1,
CCC(=O)c1cn(CC(=O)NCC2CCCO2)c2ccccc12 (stereo unspecified),3,-3,3,i,-69,-13,·,-5,
CC(=O)Nc1ccc(S(=O)(=O)NCC(=O)NCCCc2ccccc2)cc1,0,-1,5,i,-1,-14,-13,-29,
CCCCOc1ccc(-c2nnn(CCC(=O)N3CCOCC3)n2)cc1,-5,1,-1,i,·,-4,10,0,
O=C(CCc1ccccc1)NNC(=O)c1ccccc1C(=O)O,7,2,2,i,·,-10,9,8,
N/C(Cc1ccccc1Sc1ccccc1)=N\O,-6,1,-1,i,-9,-6,-7,-4,
CC(C)C(C)NC(=O)COc1ncnc2sccc12 (stereo unspecified),1,-2,3,i,10,·,-10,2,
N#Cc1ccc(CSc2nnc(-c3ccccn3)n2-c2ccc(Cl)cc2)cc1,4,-6,-9,i,-93,-13,-6,-5,
CN(CC(=O)NC(=O)NC(C)(C)C)CC(=O)Nc1ccccc1Cl,-5,0,-2,i,-11,-12,-1,-5,
Cc1cc2c(Nc3ccc(O)cc3)ncnc2s1,8,3,-1,i,13,3,·,-3,
COc1ccc(/C=C/C(=O)Nc2ccccc2C(F)(F)F)cc1,-4,1,1,i,-14,·,-8,-7,
COc1ccc(/C=C2/SC(=O)N(CCNC(=O)C3CC(=O)N(Cc4ccccc4)C3)C2=O)cc1 (stereo unspecified),·,-1,0,·,-12,0,·,·,
Cn1c(SCC(=O)NCC2CCCO2)ncc(C(=O)Nc2ccc(F)cc2)c1=O (stereo unspecified),·,-3,-1,i,-2,4,-15,·,
O=C(c1cc(COc2ccc(F)cc2Cl)on1)N(CCO)Cc1cccs1,2,-1,-2,i,4,0,1,-5,
Cc1ccc2cc(C#N)c(SCC(=O)N3CCCc4ccccc43)nc2c1,-9,-2,-2,i,0,·,23,4,
CCCCn1c(=N)n(CC(=O)C(C)(C)C)c2ccccc21,18,-5,-2,i,·,-19,-5,0,

# Two records drawn at random from those above, as already listed:
SMILES,PABP FP inh,MT1-MMP act inh,MT1-MMP act inh RFP,Rce1 inhib,Env fusion inh,Yeast UUG start,CSC inhib,eIF4H FP inh,others
CN(CC(=O)NC(=O)NC(C)(C)C)CC(=O)Nc1ccccc1Cl,-5,0,-2,i,-11,-12,-1,-5,
O=C(CCc1ccccc1)NNC(=O)c1ccccc1C(=O)O,7,2,2,i,·,-10,9,8,

# Going on with the list.
SMILES,PABP FP inh,MT1-MMP act inh,MT1-MMP act inh RFP,Rce1 inhib,Env fusion inh,Yeast UUG start,CSC inhib,eIF4H FP inh,others
Clc1ccc(-c2noc3c2-c2nc(Cc4cccc5ccccc45)sc2CC3)cc1,·,3,4,i,-10,-25,-8,·,
CN1CCN(C(=O)c2cc(S(=O)(=O)Nc3ccccc3F)c(Cl)cc2Cl)CC1,4,0,-3,i,8,-13,-5,-1,
COc1ccc(CN(CC(O)COc2cccc3[nH]cc(C)c23)C(C)(C)C)cc1 (stereo unspecified),9,-3,-4,i,12,-2,54,-4,
CCN(CC)CCn1c(NCc2ccc3c(c2)OCO3)nc2ccccc21,15,1,0,i,4,-15,-5,4,
CCOc1ccc(NC(=O)CN2C(=O)COc3ccc(S(=O)(=O)N4CCCC4)cc32)cc1,-2,0,2,i,-2,-10,-2,-8,
CC1(C(=O)NS(C)(=O)=O)CCN1C(=O)Cc1ccc(Cl)cc1Cl (stereo unspecified),·,-1,7,·,22,9,·,·,
CC(C)CNC(=O)c1cccc2c(-c3cccc(C(N)=O)c3)coc12,·,1,-10,·,-19,-10,·,·,
CCC(=O)N1CCc2cc(S(=O)(=O)NCCC(=O)NCc3ccccc3OC)ccc21,·,-1,0,i,6,-11,-6,·,
C=CCN(CC=C)C(=O)CN1C(=O)NC(Cc2c[nH]c3ccccc23)C1=O (stereo unspecified),0,4,1,i,-2,·,-5,-14,
COc1ccc(C(=O)NCC(=O)OCC(=O)Nc2cccc(S(=O)(=O)N3CCCC3)c2)cc1,2,3,6,i,17,-13,-1,4,
CCn1c(CN2CCN(C(c3ccccc3)c3ccccc3)CC2)nc2c1c(=O)n(C)c(=O)n2C,2,-1,-6,i,·,-17,6,-3,
CCOc1ccccc1OCCOCCOc1ccccc1[N+](=O)[O-],1,4,3,i,7,·,-1,6,
COc1cc(CNC2CCCC2)cc(Cl)c1OCc1ccccc1F,16,-4,-5,i,·,-16,29,-9,
Cc1ccc(Oc2nc3ccccn3c(=O)c2/C=C(\C#N)C(=O)NC2CCS(=O)(=O)C2)c(C)c1 (stereo unspecified),6,-2,-3,i,-1,4,-4,10,
COC(=O)c1ccccc1NC(=O)COc1ccc(S(=O)(=O)N2CCCC2)cc1C,5,3,-4,i,·,-13,-10,7,
Cn1nc(SCC(=O)O)sc1=S,31,-4,1,i,-9,-19,-8,-3,
COc1cccc(Nc2ncccc2C(=O)NCc2ccccc2)c1,102*,-27,-1,·,·,·,·,85*,eIF4H FP inh retest=86*;PABP FP inh retest=80*
O=C(NNS(=O)(=O)c1ccc(Cl)cc1Cl)c1cc2ncc(C(F)(F)F)cc2s1,6,-1,-2,i,8,-33,1,-6,
Oc1cccc(Nc2nc(-c3ccccc3)nc3ccccc23)c1,4,0,-1,i,-23,-8,72,12,
O=C(C1CCC(=O)N(C2CC2)C1)N1CCC(Oc2ccccc2F)CC1 (stereo unspecified),-9,7,7,i,5,0,-6,-9,
CCc1ccccc1N(C1=NCCCS1)S(=O)(=O)c1ccc(C(C)(C)C)cc1,-3,-14,-11,i,14,-10,21,0,
O=C(Cn1cnc2ccccc21)OCC(=O)N1CCCc2ccccc21,-7,2,6,i,·,-21,-8,-12,
CCc1ccc(NC(=O)NCc2ccc3c(c2)OCO3)cc1,-4,-4,-1,i,-12,2,-9,-16,
CC(C)Oc1ccc(Cc2n[nH]c(=S)n2Cc2ccccc2)cc1Cl,8,2,-14,i,5,-25,-11,5,
C=CCNC(=S)NC(=O)c1ccc(C)c(Br)c1,-2,1,-3,i,-32,·,-6,13,
CC(NC(=O)CCC(=O)N1CCN(S(=O)(=O)c2ccc(Cl)cc2)CC1)c1ccccc1 (stereo unspecified),1,1,-6,i,16,·,-6,6,
C#CCOCCOCCOCCNc1nc(N2CCN(C(=O)[C@H](CCC(=O)O)n3cc([C@@H](N)CCCCN)nn3)CC2)nc(N2CCN(C(=O)[C@H](CCCCN)n3cc([C@@H](N)CC(N)=O)nn3)CC2)n1,·,2,0,·,-15,21,·,·,
Cc1cc(C)cc(C(=O)NCC(=O)OCC(=O)N(C)C2CCS(=O)(=O)C2)c1 (stereo unspecified),-2,5,5,i,·,·,-7,-9,
CCOC(=O)N1CCN(C(=O)C(C)c2ccc([N+](=O)[O-])cc2)CC1 (stereo unspecified),7,0,3,i,-21,-6,6,4,
O=C(N/N=C/c1cn(Cc2ccccc2)c2ccccc12)c1cc(O)cc(O)c1,26,5,-1,+,7,0,27,62*,eIF4H FP inh retest=74*;PABP FP inh retest=34

# Screening results (PubChem)

# Rows were taken by chance, and some 3% of all compounds hit somewhere here.
